Assay outcomes from PubChem BioAssay.
DUX4 inh: blocks DUX4-driven transcriptional activation. hit rate 0.8% among 37,000. 293T-iDUX4 ZSCAN4-Gaussia luciferase reporter, 24 h; hits give low values. activity change, negative = inhibition, % (no concentration beside the values);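 active = -10% or lower and over 25 points stronger than a control reporter; inconclusive = -10% or lower with a smaller gap; inactive = above -10%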;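 also: 0% = median of neutral control wells and -100% = median of positive control wells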
DUX4 inh difference: further read-out of DUX4 inh, marked with its call; Gaussia minus Italica difference, %; measured here: selective DUX4 reporter inhibition;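 worked out from the two reporters; negative = selective loss of the DUX4 reporter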
DUX4 inh control: second read-out of DUX4 inh, no call of its own (marks repeat the call); activity change, negative = inhibition, %; measured here: Italica tet-on control reporter;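 0 = neutral control and -100 = positive control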
* hit, by the source's call; u = inconclusive; x = no result given; ! = not confirmed by another sample. This is a subset (hit frequency here may not be typical).

Screens in order: DUX4 inh	DUX4 inh difference	DUX4 inh control
O=C(C[C@H]1CC[C@H](NC(=O)Nc2ccc(F)cc2)[C@@H](CO)O1)NCCN1CCCC1
→ -1.3	-2.4	1.1
O=C(C1CCC1)N1C[C@H]2[C@@H](c3ccccc31)[C@@H](CO)N2C(=O)Nc1cccc(F)c1
→ 1.3	3.3	-2.0
C[C@@H]1CN([C@@H](C)CO)C(=O)CCCn2cc(nn2)CO[C@H]1CN(C)S(=O)(=O)c1ccccc1C#N
→ 5.3	-4.6	9.9
O=C(C[C@H]1CC[C@H]2[C@@H](COC[C@H](O)CN2Cc2nccs2)O1)NCc1ccc(Oc2ccccc2)cc1
→ u	x	x
CCC(=O)N(C)C[C@H]1Oc2cc(C#Cc3ccncc3)ccc2S(=O)(=O)N([C@@H](C)CO)C[C@@H]1C
→ -8.1	-1.6	-6.4
C[C@H](CO)N1C[C@H](C)[C@H](CN(C)S(=O)(=O)c2ccc3ccccc3c2)OCc2cn(nn2)CCCC1=O
→ -2.8	4.1	-6.9
COc1ccc(S(=O)(=O)N(C)C[C@H]2OCc3cnnn3CCCC(=O)N([C@@H](C)CO)C[C@H]2C)cc1
→ 3.6	-0.4	4.0
C[C@H](CO)N1C[C@H](C)[C@@H](CN(C)C(=O)Nc2ccc(C(F)(F)F)cc2)OCc2cnnn2CCCC1=O
→ 5.2	9.5	-4.3
COCC(=O)N(C[C@H]1N[C@H](CO)[C@@H]1c1ccc(C2=CCCCC2)cc1)C(C)C
→ -2.0	-0.5	-1.5
CCC(=O)N[C@H]1C=C[C@H](CC(=O)OC)O[C@@H]1CO
→ 4.3	3.5	0.8
C[C@H]1CN([C@@H](C)CO)C(=O)CCCn2cc(nn2)CO[C@@H]1CN(C)Cc1ccc(Cl)c(Cl)c1
→ -1.5	4.9	-6.4
O=C(NCC1CCCCC1)[C@@H]1[C@@H](CO)[C@@H]2Cn3c(ccc(C4=CCCC4)c3=O)[C@H]1N2
→ 2.5	-1.9	4.4
C[C@H](CO)N1C[C@H](C)[C@H](CN(C)Cc2cccc(F)c2)Oc2ncc(C3=CCCC3)cc2C1=O
→ -2.0	-4.8	2.8
C[C@H]1CN([C@@H](C)CO)C(=O)c2c(c3ccccc3n2C)-c2ccccc2CO[C@@H]1CN(C)C(=O)[C@@H]1CCCN1C
→ 11.9	14.9	-3.0
Cc1ccc(NC(=O)Nc2ccc3c(c2)C(=O)N(C)[C@H]2CC[C@H](CC(=O)NCC(F)(F)F)O[C@@H]2CO3)cc1
→ 3.1	0.1	3.0
O=C(Nc1ccccc1Cl)N1C[C@@H]2[C@H](c3ccccc31)[C@H](CO)N2C(=O)c1cccnc1
→ 3.3	3.1	0.1
O=C(Nc1ccccc1)N1C[C@H]2[C@@H](c3ccccc31)[C@H](CO)N2C(=O)c1ccccn1
→ 0.3	-2.0	2.3
O=C(C[C@H]1C=C[C@H](NC(=O)c2ccc3c(c2)OCO3)[C@@H](CO)O1)NC1Cc2ccccc2C1
→ 0.4	-1.6	2.0
COc1ccc(S(=O)(=O)Nc2ccc3c(c2)CC(=O)N([C@H](C)CO)C[C@@H](C)[C@H](CN(C)Cc2ccc(C(=O)Nc4ccccc4N)cc2)O3)cc1
→ -1.3	0.3	-1.7
CC(C)[C@@H]1CCc2cnnn2COC[C@@H](Cc2ccccc2)NC1=O
→ -5.2	-7.8	2.6
CN(C)CCCNC(=O)C[C@@H]1CC[C@@H]2[C@H](COc3ccc(NC(=O)NC4CCCC4)cc3C(=O)N2C)O1
→ 2.3	-0.7	3.0
N#C[C@@H]1[C@H](c2ccc(C#CC3CCCCC3)cc2)[C@@H](CO)N1C(=O)Nc1ccc(F)cc1
→ 2.9	-0.9	3.8
Cc1noc(C)c1NC(=O)N1C[C@@H](O)COC[C@H]2O[C@H](CC(=O)NCC3CC3)CC[C@@H]21
→ 2.4	5.3	-2.8
CCNC(=O)C[C@@H]1CC[C@@H]2[C@@H](COc3ccc(NC(=O)c4ccc(C(F)(F)F)cc4)cc3C(=O)N2C)O1
→ 1.0	-3.4	4.4
CO[C@H]1CN(C)C(=O)c2cc(NC(=O)Nc3cccc(F)c3)ccc2OC[C@@H](C)N(C(=O)C2CC2)C[C@H]1C
→ u	x	x
Cc1ccccc1S(=O)(=O)N1C[C@H](O)COC[C@H]2O[C@H](CC(=O)N3CCOCC3)CC[C@@H]21
→ 2.2	-3.8	6.0
COc1ccc(-c2ccc3n(c2=O)C[C@@H]2[C@@H](CO)[C@H](C(=O)N4CCOCC4)[C@H]3N2C)cc1
→ 3.8	1.6	2.2
COc1ccccc1C(=O)Nc1ccc2c(c1)C(=O)N(C)[C@H]1CC[C@H](CC(=O)NCc3ccc(Cl)c(Cl)c3)O[C@H]1CO2
→ 1.1	-2.4	3.5
C[C@@H]1CCCCO[C@H](CN(C)Cc2ccncc2)[C@H](C)CN([C@@H](C)CO)C(=O)c2cc(NC(=O)Cc3ccccc3)ccc2O1
→ -3.2	-5.7	2.6
CCC(=O)N1CC2(C1)[C@H](c1ccccc1)[C@H](CO)N2Cc1ccccc1OC
→ -4.7	2.3	-6.9
COc1ccc2c3c([nH]c2c1)[C@@H](CO)N(C(=O)Nc1ccccc1F)CC31CN(C(=O)c2ccccc2F)C1
→ u	x	x
O=C(C[C@@H]1C=C[C@H](NC(=O)c2ccc3c(c2)OCO3)[C@H](CO)O1)NCc1ccc(F)cc1
→ 7.2	9.9	-2.7
Cc1noc(C)c1NC(=O)Nc1ccc2c(c1)C(=O)N(C)[C@H]1CC[C@@H](CC(=O)N[C@@H]3CCN(Cc4ccccc4)C3)O[C@H]1CO2
→ -0.6	-3.5	2.9
CNC[C@H]1OCCCC[C@@H](C)Oc2ccc(NC(=O)Nc3cccc4ccccc34)cc2C(=O)N([C@@H](C)CO)C[C@@H]1C
→ -2.6	-1.3	-1.2
COc1ccc2c3c([nH]c2c1)[C@@H](CO)N(Cc1ccccc1F)CC31CCN(C)CC1
→ u	x	x
CC(C)[C@@H]1CC=CC[C@H](C)Oc2ccccc2C(=O)N(C)[C@@H](Cc2ccccc2)C(=O)N1 (mixture of isomers)
→ 0.4	-3.0	3.4
COc1ccc(C#Cc2ccc3c(c2)[C@H]2[C@H](CCN2S(=O)(=O)c2ccccc2C)[C@H](CO)N3)cc1
→ 17.6	15.8	1.8
O=C(C[C@H]1C[C@H]2c3cc(NC(=O)Cc4ccncc4)ccc3O[C@H]2[C@H](CO)O1)NCc1ccc2c(c1)OCO2
→ -3.0	-8.0	5.1
COc1ccccc1CN(C)C[C@@H]1OCc2cn(nn2)CCCC(=O)N([C@H](C)CO)C[C@@H]1C
→ 1.4	2.2	-0.8
O=C(C[C@@H]1CC[C@@H]2[C@H](COC[C@@H](O)CN2Cc2cccc(Cl)c2)O1)NCC1CCCCC1
→ -7.1	0.5	-7.5
C[C@@H]1CN([C@@H](C)CO)C(=O)CCCn2cc(nn2)CO[C@@H]1CN(C)C
→ 5.1	10.8	-5.7
COCC(=O)N1[C@H](C(=O)N2CCCCC2)[C@@H](CO)[C@@H]2Cn3c(ccc(C4=CCCCC4)c3=O)[C@@H]21
→ 2.7	-1.1	3.8
CN(C)C(=O)C[C@@H]1CC[C@@H]2[C@H](COC[C@H](O)CN2S(=O)(=O)c2ccccc2)O1
→ 4.9	2.1	2.9
CC(=O)N1[C@H](CO)[C@@H](c2ccccc2)C12CN(C(=O)c1cnccn1)C2
→ 8.7	6.0	2.7
CC(C)NC(=O)Nc1ccc2c(c1)C(=O)N([C@@H](C)CO)C[C@H](C)[C@@H](CN(C)S(=O)(=O)c1ccc(F)cc1)OCCCC[C@H](C)O2
→ 4.4	7.6	-3.2
C[C@H](CO)N1C[C@H](C)[C@H](CN(C)Cc2ccc(-c3ccccc3)cc2)OCc2cnnn2CCCC1=O
→ u	x	x
COC(=O)C[C@@H]1CC[C@@H]2[C@H](COc3ccc(NC(=O)c4ccc(OC)cc4)cc3C(=O)N2C)O1
→ 1.3	0.5	0.8
O=C(C[C@H]1C=C[C@@H](NS(=O)(=O)c2ccccc2)[C@@H](CO)O1)NCCN1CCCCC1
→ 6.8	2.5	4.3
Cc1ccccc1S(=O)(=O)N1C[C@@H](O)COC[C@@H]2O[C@@H](CC(=O)N3CCCCC3)CC[C@H]21
→ 1.4	-1.0	2.4
CN(C)c1ccc2c(c1)[C@H]1C[C@H](CC(=O)NCCc3ccccc3)O[C@H](CO)[C@H]1O2
→ -4.4	1.6	-6.0

Next section.
Screens in order: DUX4 inh	DUX4 inh difference	DUX4 inh control
CCC(=O)N1[C@H](CO)[C@@H](c2ccccc2)[C@@H]1CN(CC)C(=O)c1ccc(F)cc1
→ 0.2	-5.5	5.7
COCC(=O)Nc1ccc2c(c1)C(=O)N(C)[C@@H]1CC[C@H](CC(=O)Nc3cn(C)nc3C)O[C@H]1CO2
→ -3.6	-3.3	-0.3
C[C@@H]1CCCCO[C@@H](CN(C)C(=O)Nc2cccc3ccccc23)[C@@H](C)CN([C@H](C)CO)C(=O)c2cc(N(C)C)ccc2O1
→ -0.3	-6.1	5.8
CCCC#Cc1ccc([C@H]2[C@@H](CO)N3CCCCN(C(=O)NC4CCCC4)C[C@@H]23)cc1
→ 6.2	1.0	5.2
COc1ccc2c3c(n(C)c2c1)[C@@H](CO)N(C(=O)C1CC1)CC31CCN(Cc2cccc(F)c2)CC1
→ u	x	x
N#C[C@H]1[C@H](c2ccccc2)[C@@H](CO)N1C(=O)c1cc(Cl)cc(Cl)c1
→ -3.1	3.4	-6.4
O=C([C@@H]1[C@@H](CO)[C@@H]2Cn3c(ccc(C4=CCCCC4)c3=O)[C@H]1N2)N1CCC(Cc2ccccc2)CC1
→ 6.2	8.5	-2.3
CCS(=O)(=O)N1[C@H](CO)[C@@H](c2ccccc2)C12CN(C(=O)C1CCCC1)C2
→ 16.4	11.6	4.8
O=C(C[C@H]1CC[C@H]2[C@@H](COC[C@H](O)CN2C(=O)c2ccccc2F)O1)NCc1ccc(-c2ccccc2)cc1
→ u	x	x
CO[C@@H]1CC[C@H]2CCOc3ccc(C#N)cc3C(=O)N(C)C[C@H](c3ccccc3)CC(=O)N(C)C[C@H]1O2
→ -0.6	3.9	-4.5
O=C(C[C@H]1C[C@H]2c3cc(NC(=O)Cc4ccncc4)ccc3O[C@H]2[C@@H](CO)O1)NCc1ccc(-c2ccccc2)cc1
→ u	x	x
C[C@@H](NC(=O)[C@H]1[C@H](CO)[C@H]2Cn3c(ccc(-c4ccccc4)c3=O)[C@@H]1N2C)c1ccccc1
→ 7.9	6.6	1.2
CO[C@H]1CN(C)C(=O)c2ccc(NS(C)(=O)=O)cc2OC[C@H](C)N(C(=O)CN(C)C)C[C@@H]1C
→ 10.3	4.4	5.9
CNC(=O)C[C@@H]1CC[C@H]2[C@H](COc3ccc(NC(=O)c4ccccc4Cl)cc3C(=O)N2C)O1
→ 2.8	-5.0	7.8
C[C@@H]1CN([C@@H](C)CO)C(=O)c2cc(C#CCC3CCCC3)cnc2O[C@H]1CN(C)S(=O)(=O)c1cccs1
→ -0.7	0.7	-1.4
Fc1ccccc1-c1ccc(C2[C@@H]3CN(Cc4ccccn4)C[C@H]2N3)cc1 (some centres not stated)
→ -22.2*!	-29.2*	7.1*
C[C@@H](NC(=O)C[C@H]1CC[C@H]2[C@@H](COC[C@@H](O)CN2C(=O)Nc2cccc(F)c2)O1)c1ccccc1
→ u	x	x
O=C(CN1CCOCC1)N1CC[C@H]2[C@H](CO)Nc3ccc(-c4ccccc4)cc3[C@H]21
→ 24.0	16.2	7.8
CN(C)CC(=O)N1[C@@H](C#N)[C@@H](c2ccc(-c3cccc(C(=O)N(C)C)c3)cc2)[C@@H]1CO
→ -0.1	1.9	-1.9
O=C(c1ccccc1F)N1CC[C@H]2[C@H](CO)Nc3ccc(-c4cccc(F)c4)cc3[C@H]21
→ -2.7	18.1	-20.8

Of the compounds above, 3 contain a CF3 group:
Screens in order: DUX4 inh	DUX4 inh difference	DUX4 inh control
C[C@H](CO)N1C[C@H](C)[C@@H](CN(C)C(=O)Nc2ccc(C(F)(F)F)cc2)OCc2cnnn2CCCC1=O
→ 5.2	9.5	-4.3
Cc1ccc(NC(=O)Nc2ccc3c(c2)C(=O)N(C)[C@H]2CC[C@H](CC(=O)NCC(F)(F)F)O[C@@H]2CO3)cc1
→ 3.1	0.1	3.0
CCNC(=O)C[C@@H]1CC[C@@H]2[C@@H](COc3ccc(NC(=O)c4ccc(C(F)(F)F)cc4)cc3C(=O)N2C)O1
→ 1.0	-3.4	4.4

(continued)
Screens in order: DUX4 inh	DUX4 inh difference	DUX4 inh control
CN(C)CCCNC(=O)C[C@@H]1CC[C@@H]2[C@@H](COc3ccc(NC(=O)NC4CCCC4)cc3C(=O)N2C)O1
→ 0.3	2.6	-2.3
OC[C@H]1[C@H](c2ccc(-c3ccc(F)cc3)cc2)[C@@H]2CN(Cc3cccnc3)CCCCN12
→ 3.3	-14.6	17.8
COc1ccccc1S(=O)(=O)N1CC[C@@H]2[C@H](CO)Nc3ccc(-c4ccc(C#N)cc4)cc3[C@@H]21
→ u	x	x
O=C(Cc1ccccn1)N[C@H]1CC[C@H](CCn2cc(-c3ccc(F)cc3)nn2)O[C@@H]1CO
→ u	x	x
CC(=O)N1[C@@H]2c3ccc(C4=CCCC4)c(=O)n3C[C@H]1[C@H](CO)[C@H]2C(=O)NCc1ccccc1
→ -0.5	3.7	-4.2
C[C@@H]1CN([C@H](C)CO)C(=O)CCCn2cc(nn2)CO[C@@H]1CN(C)S(C)(=O)=O
→ 2.1	3.1	-1.0
CNC[C@H]1Oc2ncc(C#CC3(O)CCCC3)cc2C(=O)N([C@H](C)CO)C[C@H]1C
→ -5.6	-6.4	0.7
C[C@H]1CN([C@@H](C)CO)C(=O)CCCn2nncc2CO[C@@H]1CN(C)C(=O)Nc1cccc(Oc2ccccn2)c1
→ 4.6	3.4	1.2
CN1C(=O)c2cc(NC(=O)Cc3cccs3)ccc2OC[C@H]2O[C@@H](CC(=O)NCCCN3CCOCC3)CC[C@H]21
→ -1.4	-4.2	2.9
